CSC inhib – cancer stem cell viability inhibitors, primary screen, luminescence | cancer stem cell-like cells viability | inhibition, % at 7.5 µM | hit rate 1.1% among 300,000 | AID 2717, 2010;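 active = mean at 75% or more and at least half the replicates too; inconclusive = mean and replicates disagree; tested in HMLE shEcad cells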;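 note: 0% = median of negative and 100% = median of positive control wells; the first replicate is given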
eIF4H FP inh – human eIF4H binding inhibitors, primary screen, translation initiation inhibitor project, biochemical, uHTS, fluorescence polarization | Eukaryotic translation initiation factor 4H (Homo sapiens), Q15056 | eIF4H fluorescence polarization binding assay | inhibition, % at 35 µM | hit rate 0.94% among 290,000;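 active = 50% or more with normal probe brightness, or confirmed in later tests; inconclusive = above 50% with abnormal brightness, or retests that disagree; inactive = below 50% or failed in later tests; about a fifth of its hits are not listed in these tables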;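 note: calls also rest on retests at 20 µM and on dose response follow-up; 0% = protein and probe with vehicle and 100% = probe without protein; strong numbers were not always called active; many hits fall short of the cut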
Yeast UUG start – modulators of yeast start codon fidelity, primary screen, whole organism, S. cerevisiae, single point, plate reader. hit rate 0.13% among 350,000. S. cerevisiae UUG-firefly luciferase reporter, luminescence/redox ratio. activity score, % at 18.7 µM;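 active = replicate mean at a twofold rise or more, about +100% in these data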;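 note: firefly luciferase made from a UUG start codon reports start codon fidelity; reporter light over untreated wells divided by growth signal over untreated wells; some hits fall short of that in this replicate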
Env fusion inh – inhibitors of HIV-1 Env-driven cell-cell fusion, primary screen, HeLa-JRFL effector, CEM21 target cells, luciferase. inhibition, % at 12.3 µM. hit rate 1.1% among 360,000;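 active = mean replicate inhibition score of at least 50 and every replicate individually at or above 50; inconclusive = only one of the two criteria met; inactive = mean below 50 and not all replicates reaching 50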;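 note: 0% = plate neutral controls and 100% = maraviroc near 300 nM; one replicate is shown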
MT1-MMP act inh – blockers of MT1-MMP proenzyme processing, primary screen, HT1080 RFP-PRO-GFP cells, GFP/RFP fluorescence. GFP/RFP ratio fluorescence, overnight; percent of plate control window, DMSO zero. GFP/RFP ratio change, % at 20 µM. Matrix metalloproteinase-14 (Homo sapiens), P50281. hit rate 0.061% among 360,000;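 active = GFP/RFP ratio change of at least 30% with cell ATP level not reduced by more than half and red fluorescence within 50% of control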; note: strong numbers were not always called active
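system = RFP-PRO-GFP reporter HT1080 cells | dosing = 20 µM single dose, 1% DMSO | timing = overnight cell settling, then overnight compound exposure, 37 °C, 5% CO2 | read-out basis = GFP/RFP fluorescence ratio | controls = DMSO and RFP-L50D-GFP cell wells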
Rce1 inhib – yeast Rce1p protease inhibitors, primary screen, biochemical, fluorescence, cell-free homogeneous. calls only. CAAX prenyl protease 2 (Saccharomyces cerevisiae (strain ATCC 204508 / S288c)), Q03530. hit rate 0.27% among 290,000. AID 2563, 2010. yeast membranes, quenched prenylated peptide cleavage fluorescence;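 active = fall in fluorescence gain of 50% or more versus controls, with final raw signal at or below 3038400; inconclusive = same 50% fall but final raw signal above 3038400; inactive = fall in fluorescence gain under 50%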;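 note: plate controls were neutral control wells for no effect and wells lacking membranes for full effect; tested at 10 µM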
Target sequence (Q03530 whole entry, looked up): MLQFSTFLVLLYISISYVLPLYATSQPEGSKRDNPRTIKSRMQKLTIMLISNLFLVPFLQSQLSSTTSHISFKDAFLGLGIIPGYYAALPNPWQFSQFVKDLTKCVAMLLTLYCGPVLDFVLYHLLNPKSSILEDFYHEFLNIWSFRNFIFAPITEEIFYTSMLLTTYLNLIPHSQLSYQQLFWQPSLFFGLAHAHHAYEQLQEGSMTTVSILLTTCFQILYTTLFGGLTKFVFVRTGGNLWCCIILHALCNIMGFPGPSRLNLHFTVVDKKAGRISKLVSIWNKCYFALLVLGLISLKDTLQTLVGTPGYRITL
PABP polyA inh – PABP poly(A) RNA binding inhibitors, primary screen, biochemical, fluorescence polarization, uHTS; Polyadenylate-binding protein 1 (Homo sapiens), P11940; inhibition, % at 35 µM; hit rate 1% among 290,000; AID 2014, 2009;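 active = 50% or more with normal probe brightness, or confirmed in later tests; inconclusive = above 50% with abnormal brightness, or retests that disagree; inactive = below 50% or failed in later tests; about a fifth of its hits are not listed in these tables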;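 note: calls also rest on retests at 20 µM and on dose response follow-up; controls were probe without protein and protein plus probe with vehicle; some compounds called inactive have numbers as strong as hits; many hits fall short of the cut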
Target sequence (P11940 whole entry, looked up): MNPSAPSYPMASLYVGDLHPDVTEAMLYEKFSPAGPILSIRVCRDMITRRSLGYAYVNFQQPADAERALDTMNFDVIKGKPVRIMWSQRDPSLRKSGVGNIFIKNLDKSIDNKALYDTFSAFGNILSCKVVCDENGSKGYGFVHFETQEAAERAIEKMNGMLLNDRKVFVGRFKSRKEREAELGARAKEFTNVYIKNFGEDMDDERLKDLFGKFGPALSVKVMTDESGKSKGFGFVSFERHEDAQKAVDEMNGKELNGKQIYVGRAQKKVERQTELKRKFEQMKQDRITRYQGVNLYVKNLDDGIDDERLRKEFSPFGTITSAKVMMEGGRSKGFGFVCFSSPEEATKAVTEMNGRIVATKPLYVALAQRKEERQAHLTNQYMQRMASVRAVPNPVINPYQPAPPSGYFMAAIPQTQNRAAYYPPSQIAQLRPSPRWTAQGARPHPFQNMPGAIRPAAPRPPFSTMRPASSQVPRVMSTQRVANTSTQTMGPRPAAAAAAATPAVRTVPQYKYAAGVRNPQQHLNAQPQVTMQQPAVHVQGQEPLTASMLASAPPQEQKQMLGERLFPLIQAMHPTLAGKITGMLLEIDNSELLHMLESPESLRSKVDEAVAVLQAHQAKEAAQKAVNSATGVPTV
eIF4H FP inh retest – further read-out of eIF4H FP inh, marked with its call; inhibition, %; compound at 20 µM; confirmation average;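 mean of two retest wells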
PABP polyA inh retest – also measured in PABP polyA inh; calls as there; inhibition, %; compound at 20 µM; confirmation repeats;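 mean of two retest wells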
MT1-MMP act inh RFP – second read-out of MT1-MMP act inh, no call of its own (marks repeat the call); RFP signal change, %; measured here: RFP expression control read;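 0 = vehicle wells; hits needed this value within 50% of zero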
The depositor's hits bear a star; i = inactive; ? = inconclusive; . = no result given; & = joins results of further samples; [ ] = remark or other dose.

SMILES | CSC inhib | eIF4H FP inh | Yeast UUG start | Env fusion inh | MT1-MMP act inh | MT1-MMP act inh RFP | Rce1 inhib | PABP polyA inh | others
COc1ccc(S(=O)(=O)N2CCN(Cc3cccs3)CC2)cc1OC | -6 | . | -16 | -7 | -1 | -3 | . | .
O=C(O)/C=C/c1ccc(S(=O)(=O)N2CCCCCC2)cc1 | -2 | 1 | -6 | 10 | -1 | 1 | i | -7
COc1ccc(-c2cc(N)n(S(=O)(=O)c3ccc(C)cc3)n2)c(OC)c1 | -2 | -2 | -22 | 17 | -2 | -8 | i | -5
Cc1ccc(NC(=O)CNCc2ccccn2)cc1S(=O)(=O)N(C)C | -15 | 5 | -25 | 0 | -5 | 3 | i | 17
O=C(N/N=C/c1ccncc1)c1cc(Br)ccc1OCc1ccccc1 | -6 | 17 | . | 0 | -4 | -7 | i | 7
CCCCN(C)C(=O)c1nc2ccccn2c1CN1CCC[C@H]1CO | -9 | 0 | -5 | -9 | 4 | 1 | i | -2
Cc1ccc2c(C(=O)CN3CCCCC3CCO)c(C)[nH]c2c1 (stereo unspecified) | -9 | -3 | -13 | . | -4 | 4 | i | 38
CO/N=C/NC(=O)N1OC[C@@H]2COc3ccc4ccccc4c3[C@@H]21 | -18 | 2 | . | . | 3 | 3 | i | 0
CN1Cc2c(N3CCOCC3)nc(SCc3ccccc3)c(C#N)c2CC1(C)C | . | ? | 6 | 50 | -3 | 2 | i | ?
O=C(Cn1c(N2CCN(C/C=C/c3ccccc3)CC2)nc2ccccc21)c1ccccc1 | -9 | -11 | . | 17 | . | . | i | -2
COc1ccc(C(=O)C2CCCN(Cc3c(O)cccc3OC)C2)cc1OC (stereo unspecified) | 6 | 6 | 2 | 16 | -5 | 2 | i | -10
CC(C)(C)[C@H]1C=C(C(=O)Nc2ccccc2)O[C@@H](OCc2ccc(CO)cc2)C1 | -17 | -5 | -1&-6 | 13[16.7 µM] | 2 | -3 | i | -6
COC(=O)c1cccc(NC(=O)c2cccs2)c1C | -2 | -17 | . | -28 | 5 | 9 | i | -10
CC(C)c1ccc(NC2CCCN(C(=O)c3cscn3)C2)cc1 (stereo unspecified) | 1 | -2 | -1 | -1 | 2 | -4 | i | -6
COc1ccc2cc(CCNC(=O)c3c(-c4ccccc4Cl)noc3C)c(=O)[nH]c2c1 | -14 | 5 | -6 | 2 | 5 | 0 | i | 7

Overlap with the part before: four compounds, then new ones.
SMILES | CSC inhib | eIF4H FP inh | Yeast UUG start | Env fusion inh | MT1-MMP act inh | MT1-MMP act inh RFP | Rce1 inhib | PABP polyA inh | others
CC(C)(C)[C@H]1C=C(C(=O)Nc2ccccc2)O[C@@H](OCc2ccc(CO)cc2)C1 | -17 | -5 | -1&-6 | 13[16.7 µM] | 2 | -3 | i | -6
COC(=O)c1cccc(NC(=O)c2cccs2)c1C | -2 | -17 | . | -28 | 5 | 9 | i | -10
CC(C)c1ccc(NC2CCCN(C(=O)c3cscn3)C2)cc1 (stereo unspecified) | 1 | -2 | -1 | -1 | 2 | -4 | i | -6
COc1ccc2cc(CCNC(=O)c3c(-c4ccccc4Cl)noc3C)c(=O)[nH]c2c1 | -14 | 5 | -6 | 2 | 5 | 0 | i | 7
CC(NCc1cccn1C)c1ccccc1 (stereo unspecified) | -10 | 1 | -8 | -80 | 4 | 8 | i | 3
COCCN(C(=O)CSc1nnc(-c2ccccc2F)o1)c1c(N)n(Cc2ccccc2)c(=O)[nH]c1=O | . | . | -1 | -7 | -7 | 0 | . | .
O=C(NCCc1ccc2c(c1)OCCO2)c1cc(F)cc(F)c1 | -6 | -12 | -8 | 55 | -1 | -20 | i | -6
O=C(CN1C(=O)c2cccc3cccc(c23)C1=O)N1CCN(c2ccccn2)CC1 | -7 | -2 | . | 7 | -2 | -1 | i | 11
Cc1ccc(S(=O)(=O)N2CCOCC2)cc1C(=O)Nc1cc(Cl)ccc1N1CCOCC1 | . | . | -16 | -3 | 1 | 1 | . | .
CCN1C(=O)c2cccc3c(Cl)ccc1c23 | -19 | -5 | -4 | 38 | -5 | -2 | i | 4
CCOC(=O)CN1CC23C=CC(O2)C(C(=O)Nc2ccc(OC)cc2OC)C3C1=O (stereo unspecified) | -9 | 4 | 6 | 2 | 1 | 7 | i | -11
CC(=O)Nc1nnc(/C=C/c2cccc([N+](=O)[O-])c2)s1 | 2 | -6 | -14 | 1 | -2 | 3 | . | 4
Cc1cc(=O)[nH]c(SCC(=O)Nc2ccccc2C)n1 | 1 | 6 | . | -5 | -1 | 1 | . | 33
CCOc1cccc(OCCOCCN(C)Cc2ccccc2)c1 | 28 | 14 | -10 | . | -2 | -1 | i | 2
CC(C)C[C@H]1CNC(=O)C(=O)N1CC1CCN(CCc2ccc(-c3ccccc3)cc2)CC1 | . | . | 2 | 1 | 2 | 2 | . | .
Cc1ccc(CSc2nncn2-c2ccccn2)cc1 | -15 | -2 | -9 | -16 | 5 | 4 | i | 3
CCCNC(=O)NC(=O)CN1C(=O)NC(C)(c2ccc3ccccc3c2)C1=O (stereo unspecified) | -5 | 9 | 6 | -9 | 0 | -5 | i | 6
O=C(NCc1ccccn1)c1ccc(N2CCCC2=O)cc1 | 3 | -10 | -15 | . | -6 | -2 | i | -3
CCN1CCN(c2cc(C)c3cc(NC(=O)c4cc(OC)cc(OC)c4)ccc3n2)CC1 | 8 | -2 | -18 | -20 | 6 | -2 | i | -7
Cc1nc(C(C)N(C)Cc2nc(Cc3ccccc3F)no2)c(C)s1 (stereo unspecified) | -4 | -5 | -5 | -5 | 0 | -6 | i | -12
CCN(CC(=O)Nc1c(F)cccc1F)C(=O)C1CC(=O)N(CCc2ccccc2)C1 (stereo unspecified) | -4 | . | . | 0 | 3 | 4 | i | .
COc1cc(CNC(C)(C)C)cc(Br)c1OCc1cccs1 | 47 | 2 | 0 | -10 | 1 | -2 | i | -5
Cc1ccnc(-n2c(C)cc(C=O)c2C)c1 | -5 | ? | . | 16 | -3 | -4 | i | ?
C=CCc1c(O)nc(SCC(=O)c2ccccc2)[nH]c1=O | -9 | 6 | -16 | . | 1 | 5 | i | 6
CC1CCN(C(=O)CN(C2CCCCC2)S(C)(=O)=O)CC1 | 17 | 8 | -21 | . | 0 | 1 | i | -10
CCOC(=O)C(=CNc1cscc1S(=O)(=O)C(C)C)C(=O)OCC | -15 | -5 | . | 16 | -1 | -2 | i | 5
O=P(OC1CCCCC1)(OC1CCCCC1)C(Nc1ccccc1)c1cccnc1 (stereo unspecified) | 6 | 6 | -14 | 41 | 0 | -3 | i | 2
O=C(O)/C=C/c1cn(-c2ccccc2)nc1-c1ccc2c(c1)OCCO2 | 17 | 52 | -17 | -12 | 2 | 6 | i | 40 | eIF4H FP inh retest=4;PABP polyA inh retest=-5
CCOC(=O)C(CCC(C)=O)C(=O)c1ccccc1 (stereo unspecified) | 5 | -2 | -7 | -1 | -2 | 3 | i | 7
CN1OC2C(=O)N(c3ccccc3)C(=O)C2C1c1ccc(F)cc1 (stereo unspecified) | 3 | -7 | -32 | -55 | 5 | 5 | i | 0
CSc1nc2c(c(=O)[nH]1)C(c1cccs1)C1=C(CCCC1=O)N2 (stereo unspecified) | 1 | 3 | -2 | -41 | 1 | 1 | i | 12
Cc1cc(C)n2nc(SCC(=O)N(C)c3c(N)n(Cc4ccccc4)c(=O)[nH]c3=O)nc2n1 | 6 | -6 | . | . | -1 | 2 | i | 6
Cc1ccc(N2CC(C(=O)O)CC2=O)cc1 (stereo unspecified) | -8 | -1 | . | -12 | 4 | 4 | i | 5
CCOC(=O)c1ccc(C(=O)OCC)nc1 | 10 | -4 | . | -4 | 1 | 1 | . | -1

Three compounds out of the list, sorted by formula weight, ascending:
SMILES | CSC inhib | eIF4H FP inh | Yeast UUG start | Env fusion inh | MT1-MMP act inh | MT1-MMP act inh RFP | Rce1 inhib | PABP polyA inh | others
Cc1ccc(N2CC(C(=O)O)CC2=O)cc1 (stereo unspecified) | -8 | -1 | . | -12 | 4 | 4 | i | 5
CN1OC2C(=O)N(c3ccccc3)C(=O)C2C1c1ccc(F)cc1 (stereo unspecified) | 3 | -7 | -32 | -55 | 5 | 5 | i | 0
O=P(OC1CCCCC1)(OC1CCCCC1)C(Nc1ccccc1)c1cccnc1 (stereo unspecified) | 6 | 6 | -14 | 41 | 0 | -3 | i | 2

Of the compounds above, these have two or more sulfur atoms:
SMILES | CSC inhib | eIF4H FP inh | Yeast UUG start | Env fusion inh | MT1-MMP act inh | MT1-MMP act inh RFP | Rce1 inhib | PABP polyA inh | others
COc1ccc(S(=O)(=O)N2CCN(Cc3cccs3)CC2)cc1OC | -6 | . | -16 | -7 | -1 | -3 | . | .
CCOC(=O)C(=CNc1cscc1S(=O)(=O)C(C)C)C(=O)OCC | -15 | -5 | . | 16 | -1 | -2 | i | 5
CSc1nc2c(c(=O)[nH]1)C(c1cccs1)C1=C(CCCC1=O)N2 (stereo unspecified) | 1 | 3 | -2 | -41 | 1 | 1 | i | 12

Continuation:
SMILES | CSC inhib | eIF4H FP inh | Yeast UUG start | Env fusion inh | MT1-MMP act inh | MT1-MMP act inh RFP | Rce1 inhib | PABP polyA inh | others
Cc1cccc(Nc2nc(NCc3ccco3)c3ccccc3n2)c1 | 113* | -11 | . | 30 | -8 | -23 | i | 4
O=C(NCc1ccccc1)NC1(C(=O)N2CCN(c3ncccn3)CC2)CCCCC1 | 5 | 2 | -16 | -34 | -1 | 3 | i | -10
COc1ccc(S(=O)(=O)Nc2cc3c4c(oc3c3ccccc23)CC(C)(C)CC4=O)cc1 | -7 | 6 | -20 | 33 | -26 | -20 | i | 3
Cc1ccc(S(=O)(=O)NC(CC(=O)NCc2ccco2)c2ccco2)cc1 (stereo unspecified) | -1 | 13 | . | . | -7 | -3 | i | 1
COCCNC(=O)/C(C#N)=C/c1ccc2c(c1)OCO2 | -12 | 1 | . | -9 | 3 | 2 | i | -4
N#Cc1cc(Cl)c(NCC2CCCO2)cc1C#N (stereo unspecified) | -1 | -10 | -3 | 21 | 3 | -1 | . | 4
CC(C)CNC(=O)C1CCN(S(=O)(=O)c2ccc(-n3cnnn3)cc2)CC1 | . | -1 | -4 | -3 | 1 | 0 | i | -3
Cc1cccnc1 | -2 | . | -3 | . | 0 | 4 | . | .
Cc1ccc(NC(=O)CCC(=O)NNC(=O)Cc2ccccc2)cc1C | 2 | 4 | -8 | . | 3 | 7 | i | 8
CCCCOC(=O)Nc1nc(CC(=O)OCC)cs1 | -17 | -1 | 6 | -8 | -3 | -4 | . | 3
Cc1ccc(C(=O)CC(SCC(=O)O)c2ccc([N+](=O)[O-])cc2)cc1 (stereo unspecified) | 8 | -13 | . | 3 | 2 | 4 | i | -15
CC1(C)CC(NC(=O)Nc2ccc([N+](=O)[O-])cc2)CC(C)(C)N1 | 35 | 1 | -15 | 6 | -4 | 2 | i | 4
COc1cccc(/C=N/NC(=O)c2ccc(COc3ccc(Cl)cc3Cl)o2)c1 | 1 | -4 | -3 | . | 0 | -6 | i | 5
